Screening results from PubChem BioAssay.
PABP FP inh: PABP poly(A) RNA binding inhibitors, primary screen, biochemical, fluorescence polarization, uHTS | inhibition, % at 35 µM | actives 1% (n = 290,000);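 active = 50% or more with normal probe brightness, or confirmed in later tests; inconclusive = above 50% with abnormal brightness, or retests that disagree; inactive = below 50% or failed in later tests; about a fifth of its hits are not listed in these tables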;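 also: calls also rest on retests at 20 µM and on dose response follow-up; controls were probe without protein and protein plus probe with vehicle; some compounds called inactive have numbers as strong as hits; many hits fall short of the cut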
Target sequence (P11940 whole entry, looked up): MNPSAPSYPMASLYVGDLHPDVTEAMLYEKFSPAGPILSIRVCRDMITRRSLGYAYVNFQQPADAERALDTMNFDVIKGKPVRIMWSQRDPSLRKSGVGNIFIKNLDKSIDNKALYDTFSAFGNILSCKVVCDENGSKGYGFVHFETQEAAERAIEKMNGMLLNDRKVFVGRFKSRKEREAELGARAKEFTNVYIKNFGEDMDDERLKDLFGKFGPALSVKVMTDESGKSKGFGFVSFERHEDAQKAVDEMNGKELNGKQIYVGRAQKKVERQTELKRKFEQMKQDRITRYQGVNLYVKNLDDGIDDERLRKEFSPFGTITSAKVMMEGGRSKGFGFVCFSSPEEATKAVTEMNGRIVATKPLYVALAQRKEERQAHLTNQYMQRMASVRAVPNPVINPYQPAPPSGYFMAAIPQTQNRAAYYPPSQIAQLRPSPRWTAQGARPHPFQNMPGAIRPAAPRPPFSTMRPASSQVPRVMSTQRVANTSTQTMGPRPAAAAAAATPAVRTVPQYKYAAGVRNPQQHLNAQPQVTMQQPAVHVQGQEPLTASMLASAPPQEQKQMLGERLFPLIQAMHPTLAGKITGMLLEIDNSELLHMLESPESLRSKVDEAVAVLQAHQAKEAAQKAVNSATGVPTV
Env fusion inh: inhibitors of HIV-1 Env-driven cell-cell fusion, primary screen, HeLa-JRFL effector, CEM21 target cells, luciferase. AID 651610, 2012. actives 1.1% (n = 360,000). inhibition, % at 12.3 µM;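 active = mean replicate inhibition score of at least 50 and every replicate individually at or above 50; inconclusive = only one of the two criteria met; inactive = mean below 50 and not all replicates reaching 50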;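 also: 0% = plate neutral controls and 100% = maraviroc near 300 nM; one replicate is shown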
CSC inhib: cancer stem cell viability inhibitors, primary screen, luminescence; inhibition, % at 7.5 µM; cancer stem cell-like cells viability; actives 1.1% (n = 300,000); AID 2717, 2010;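 active = mean at 75% or more and at least half the replicates too; inconclusive = mean and replicates disagree; tested in HMLE shEcad cells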;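 also: 0% = median of negative and 100% = median of positive control wells; the first replicate is given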
Rce1 inhib: yeast Rce1p protease inhibitors, primary screen, biochemical, fluorescence, cell-free homogeneous. CAAX prenyl protease 2 (Saccharomyces cerevisiae (strain ATCC 204508 / S288c)), Q03530. yeast membranes, quenched prenylated peptide cleavage fluorescence. calls only. actives 0.27% (n = 290,000);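 active = fall in fluorescence gain of 50% or more versus controls, with final raw signal at or below 3038400; inconclusive = same 50% fall but final raw signal above 3038400; inactive = fall in fluorescence gain under 50%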;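 also: plate controls were neutral control wells for no effect and wells lacking membranes for full effect; tested at 10 µM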
Target sequence (Q03530 whole entry, looked up): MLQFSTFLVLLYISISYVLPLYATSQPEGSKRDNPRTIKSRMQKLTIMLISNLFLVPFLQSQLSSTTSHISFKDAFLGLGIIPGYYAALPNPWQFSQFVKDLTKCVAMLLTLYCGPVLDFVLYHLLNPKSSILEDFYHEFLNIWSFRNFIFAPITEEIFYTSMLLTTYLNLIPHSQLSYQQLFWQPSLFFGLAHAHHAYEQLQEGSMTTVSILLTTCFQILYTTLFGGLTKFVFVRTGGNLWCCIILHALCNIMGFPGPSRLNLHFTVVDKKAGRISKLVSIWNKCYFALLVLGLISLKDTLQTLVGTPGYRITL
UUG fidelity: modulators of yeast start codon fidelity, primary screen, whole organism, S. cerevisiae, single point, plate reader. actives 0.13% (n = 350,000). S. cerevisiae UUG-firefly luciferase reporter, luminescence/redox ratio. AID 602363, 2012. activity score, % at 18.7 µM;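 active = replicate mean at a twofold rise or more, about +100% in these data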;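 also: firefly luciferase made from a UUG start codon reports start codon fidelity; reporter light over untreated wells divided by growth signal over untreated wells; some hits fall short of that in this replicate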
eIF4H FP inh: human eIF4H binding inhibitors, primary screen, translation initiation inhibitor project, biochemical, uHTS, fluorescence polarization; Eukaryotic translation initiation factor 4H (Homo sapiens), Q15056; eIF4H fluorescence polarization binding assay; inhibition, % at 35 µM; actives 0.94% (n = 290,000); AID 2012, 2009;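 active = 50% or more with normal probe brightness, or confirmed in later tests; inconclusive = above 50% with abnormal brightness, or retests that disagree; inactive = below 50% or failed in later tests; about a fifth of its hits are not listed in these tables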;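 also: calls also rest on retests at 20 µM and on dose response follow-up; 0% = protein and probe with vehicle and 100% = probe without protein; strong numbers were not always called active; many hits fall short of the cut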
MT1-MMP act inh: blockers of MT1-MMP proenzyme processing, primary screen, HT1080 RFP-PRO-GFP cells, GFP/RFP fluorescence | GFP/RFP ratio fluorescence, overnight; percent of plate control window, DMSO zero | GFP/RFP ratio change, % at 20 µM | actives 0.061% (n = 360,000) | AID 651647, 2012;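 active = GFP/RFP ratio change of at least 30% with cell ATP level not reduced by more than half and red fluorescence within 50% of control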; also: strong numbers were not always called active
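Compound: 20 µM single dose, 1% DMSO / System: HT1080 RFP-PRO-GFP cells / Controls: DMSO and RFP-L50D-GFP cell wells / Read-out basis: GFP/RFP fluorescence ratio / Schedule: overnight compound exposure at 37 °C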
eIF4H FP inh retest: second read-out of eIF4H FP inh, no call of its own (marks repeat the call); inhibition, %; compound at 20 µM; confirmation average;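 mean of two retest wells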
PABP FP inh retest: also measured in PABP FP inh; calls as there; inhibition, %; compound at 20 µM; confirmation repeats;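 mean of two retest wells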
MT1-MMP act inh RFP: second read-out of MT1-MMP act inh, no call of its own (marks repeat the call); RFP signal change, %; measured here: RFP expression control read;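 0 = vehicle wells; hits needed this value within 50% of zero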
An asterisk follows results filed as active; i = inactive; ? = inconclusive; · = not tested or not shown; & = joins results of further samples.

SMILES | PABP FP inh | Env fusion inh | CSC inhib | Rce1 inhib | UUG fidelity | eIF4H FP inh | MT1-MMP act inh | MT1-MMP act inh RFP | others
CC12CN3CC(C)(CN(C1)C3c1ccc(Cl)cc1Cl)C2O (stereo unspecified) | -1 | -10 | -1 | i | -8 | -4 | 0 | 0
CCOC(=O)c1[nH]c(C)c(C(=O)N2CCCC(Nc3ccc(C)c(C)c3)C2)c1C (stereo unspecified) | 5 | -16 | -1 | i | -3 | -5 | 1 | 2
Cc1nc(N2CCN(c3ccc(Cl)cc3)CC2)[nH]c(=O)c1C | -1 | -10 | -17 | i | 3 | -1 | 5 | -3
O=C1Nc2ccc(F)cc2C12Nc1ccccc1-c1nnc(SCc3ccccc3Cl)nc1O2 (stereo unspecified) | 14 | · | · | i | 5 | 1 | 11 | 5
CC/C(=N\NC(=O)c1ccccc1Cl)c1ccc(Br)s1 | 7 | -10 | 8 | i | -17 | -1 | 14 | 7
O=C(Nc1ccccc1Cl)c1cc(C2CCCN(C(=O)CCCc3ccccc3)C2)on1 (stereo unspecified) | · | ? | · | · | -7 | · | -1 | 4
COC(=O)c1ccccc1NC(=O)CSc1ccccc1 | 1 | 14 | -12 | i | -20 | 2 | 1 | 3
Cc1ccc(C(=O)NCc2ccccc2)c(F)c1F | -2 | -16 | -2 | i | · | 10 | -4 | 7
CC(C)(C)n1nnnc1C(c1cccs1)N1CCN(c2ccccc2)CC1 (stereo unspecified) | 8 | -57 | 0 | i | -24 | -2 | 2 | -4
Cc1cccc(-c2nc3c(s2)CCc2onc(-c4ccc(Br)cc4)c2-3)c1 | -12 | -51 | 13 | i | -14 | -11 | 4 | 1
O=c1[nH][nH]c(=O)c2c1[nH]c(=S)n2Cc1ccccc1 | · | -19 | · | · | -14 | · | -6 | 4
O=C1c2ccccc2C(=O)N1CC(O)Cn1nnc2ccccc21 (stereo unspecified) | 17 | -53 | -10 | i | -12 | -15 | -2 | 6
CC(=O)N(c1ccc(Br)cc1)C1C=CS(=O)(=O)C1 (stereo unspecified) | -16 | 6 | -4 | i | 1 | -10 | -7 | 2
O=S(=O)(Nc1ccccc1)N1CCCCC1 | · | -16 | · | · | -4 | · | 2 | 2
COc1ccc(C(=O)O/N=C(/C)c2cccs2)cc1 | -2 | · | -14 | i | · | -6 | 3 | 4
O=c1cc(O)n(-c2ccccc2F)c(=S)[nH]1 | 64* | · | -11 | i | -10 | 46* | -10 | 7 | eIF4H FP inh retest=57*;PABP FP inh retest=50*
CCOC(=O)C1CCN(C(=O)Nc2c(-c3ccccc3)noc2C)CC1 | -7 | -8 | -9 | i | -18 | 4 | 0 | 2
O=C1c2ccccc2C(Nc2ccc(S(=O)(=O)N3CCCCC3)cc2)N1Cc1ccco1 (stereo unspecified) | 4 | -1 | -22 | i | -4 | 1 | 0 | -3
CCOC(=O)C1CCCN(C(=O)c2cc(C(C)(C)C)nn2C)CC1 (stereo unspecified) | · | 13 | · | · | 3 | · | -1 | -1
O=C(O)c1cc(NC(=O)c2ccc3c(c2)C(=O)N(Cc2ccccc2)C3=O)cc(C(=O)O)c1 | 17 | -3 | -4 | i | -21 | 3 | 0 | 4
C[C@H]1CN([C@@H](C)CO)C(=O)CCCn2nncc2CO[C@@H]1CN(C)C(=O)c1ccncc1 | · | 20 | · | · | -19&-5 | · | 3 | 1
O=C(CN1N=C(c2ccccc2)CCC1=O)NCc1ccccc1 | -7 | -5 | 3 | i | · | 2 | -1 | 1
O=S(=O)(NCc1ccccn1)c1ccc(Br)s1 | 2 | -28 | -13 | i | -10 | 4 | 2 | 2
COCCNC(=O)c1cc(-c2ccccc2)nn1Cc1cc(C)no1 | · | 38 | · | · | -7 | · | 8 | 5
CN1CCCN(Cc2cccc3ccccc23)CC1 | 10 | -16 | 20 | i | 0 | 16 | -6 | -1
CCc1c(O)nc2sc3ccccc3n2c1=O | -8 | · | -19 | i | -5 | -10 | -5 | 0
COC(=O)c1ccc(C2C(C#N)=C(N)Oc3cc(N)ccc32)cc1 (stereo unspecified) | 5 | 20 | 1 | i | 0 | 8 | -2 | 2
CCn1c(=O)[nH]c2cc(C(=O)Nc3cc(C)cc(C)c3)ccc2c1=O | 1 | -17 | 9 | i | · | 4 | 3 | -9
CN(C)CCn1ccc(O)c(Cc2ccc(Cl)cc2)c1=O | -13 | 8 | -7 | i | -31 | -2 | 0 | 2
NS(=O)(=O)c1cccc(NC(=O)CN2CCC(Cc3ccccc3)CC2)c1 | 55 | -8 | 3 | i | -4 | -2 | 5 | 1 | eIF4H FP inh retest=-9;PABP FP inh retest=4
Cc1cc(C)c2nc(SCC(=O)NCC3CCCO3)c(C#N)cc2c1 (stereo unspecified) | 10 | -7 | 6 | i | · | 11 | -2 | 2
COc1ccc2c(=O)c(C(=O)NCCc3ccccc3)c[nH]c2c1 | -3 | -1 | -7 | i | -17 | -4 | 4 | -6
CCOc1ccc(NS(=O)(=O)c2ccc(C(=O)N(C)CC(=O)Nc3ccc(OC)cc3)cc2)cc1 | · | 5 | -4 | i | · | · | 6 | -1
Cc1cc(C=O)c(C)n1-c1ccc(NC2CCCCC2)c([N+](=O)[O-])c1 | 0 | · | -7 | i | -3 | 6 | -2 | -15
COc1ccc2cc(/C=N/NC(=O)CSCc3ccc([N+](=O)[O-])cc3)c(Cl)nc2c1 | 11 | · | 15 | i | -23 | 13 | 1 | -1
O=[N+]([O-])c1cc(C(F)(F)F)ccc1N1CCN(CCO)CC1 | -3 | 0 | -7 | i | · | -1 | 3 | 2
O=C(CNC(=O)c1n[nH]c2ccccc12)Nc1cc(Cl)ccc1Cl | · | -12 | 5 | · | -13 | · | 0 | 4
O=C(NCc1ccc(N2CCCC2=O)cc1)c1cn(Cc2ccccc2)nn1 | 5 | -17 | 1 | i | -13 | 1 | -3 | -2
Cc1cc(C(=O)OCC(=O)N(CC(C)C)c2c(N)n(Cc3ccccc3)c(=O)[nH]c2=O)c2ccccc2n1 | · | -26 | · | i | -12 | · | -2 | -2
CCOc1ccccc1NC(=S)Nn1cnnc1 | 6 | 1 | -7 | i | -10 | -6 | 2 | 3
O=C(c1cc(N2C(=O)C3C4CCC(C4)C3C2=O)ccc1Cl)N1CCCCCC1 (stereo unspecified) | 39 | -14 | -14 | i | · | 2 | 2 | 0
Cc1ccnc(NS(=O)(=O)c2ccc(NC(=O)c3cc(-c4ccccc4)nc4ccccc34)cc2)n1 | 2 | -6 | 0 | i | · | -7 | -1 | 2
C=CCN1C(=O)c2ccc(C(=O)N3CCN(S(=O)(=O)c4cc(C)ccc4C)CC3)cc2C1=O | · | -18 | 1 | i | 31 | · | -2 | -2
OCCN(CCO)CC(O)COc1ccc(C23CC4CC(CC(C4)C2)C3)cc1 (stereo unspecified) | -4 | 15 | 78* | i | 1 | -4 | -1 | -5
COc1cccc(-c2cnc3c(NC=O)cc(-c4ccncc4)cn23)c1 | · | 1 | · | · | 20 | · | -2 | -1
Cc1cc(C(=O)NC(C)C2CCCO2)c(C)o1 (stereo unspecified) | -5 | -42 | -2 | i | -2 | 11 | -2 | -4
CCCn1c(N)c(C(=O)CN(C)CC(=O)Nc2cc(C)ccc2C)c(=O)[nH]c1=O | · | -3 | · | · | -14 | · | -8 | 1
NS(=O)(=O)c1ccc2c(c1)oc(=O)c1cc(S(N)(=O)=O)ccc12 | 13 | -24 | 16 | i | -1 | 8 | -2 | 1
CC(=O)N1CCOCCOCCN(C(C)=O)CCOCC1 | 12 | 6 | -8 | i | · | -2 | 0 | 5
COc1ccccc1CN(C(=O)CCl)C(C(=O)NC1CCCCC1)c1ccncc1 (stereo unspecified) | 5 | · | -5 | · | 5 | ? | -14 | 8
Further records follow:
SMILES | PABP FP inh | Env fusion inh | CSC inhib | Rce1 inhib | UUG fidelity | eIF4H FP inh | MT1-MMP act inh | MT1-MMP act inh RFP | others
COc1ccc(CCNC(=O)C2CCN(S(=O)(=O)N3CCOCC3)CC2)cc1OC | -8 | -19 | -21 | i | 4 | 2 | 0 | -3
CCOC(=O)C1CCN(C(=O)CCc2c(C)nc3cc(-c4ccc(OC)cc4OC)nn3c2C)CC1 | 2 | 44 | -2 | i | · | -7 | 1 | 0
CCN(CC)C(=O)[C@H]1CC(CC(=O)NCCCN(C)C)C(=O)N2CCc3c([nH]c4ccccc34)[C@]12C (stereo partly specified) | · | -26 | · | · | -24 | · | 1 | 6
CCCCC(C(=O)O)C(C)CC(=O)Nc1cccc(C(=O)O)c1 (stereo unspecified) | -3 | · | 4 | i | 1 | 9 | -1 | -1
O=C(NNS(=O)(=O)c1ccccc1[N+](=O)[O-])c1cccc(Br)c1 | -4 | -69 | -10 | i | -5 | 1 | 1 | 1
COc1cc(NC(=O)COC(=O)C=C(C)C)c(C)cc1[N+](=O)[O-] | -11 | -1 | -8 | i | -16 | -9 | 4 | 5
COc1ccc(C(=O)Nc2nnc(CCS(=O)(=O)c3ccc(C)cc3)s2)cc1 | -2 | -2 | -1 | i | · | -6 | 0 | 0
Cc1cccn2c(=O)c3cc(C#N)c(=O)n(Cc4cccnc4)c3nc12 | 7 | -94 | · | · | -16 | -1 | -1 | -1
O=C(CSc1nnc(CNc2ccc(Cl)cc2)o1)Nc1nc2ccccc2s1 | 5 | 35 | -3 | i | -24 | -8 | 1 | -2
O=C(Nc1ccccc1N1CCOCC1)c1ccc(Br)o1 | 0 | -3 | -6 | i | -19 | 6 | 4 | -5
COc1ccc(C(=O)c2cnc[nH]2)cc1 | 13 | 5 | -2 | i | 171* | -10 | -5 | 0
C(=N\NCc1ccccc1)/c1ccc2nccnc2c1 | -8 | -15 | -11 | i | -9 | -5 | 0 | 0
O=C(Nc1nc(-c2ccccc2)cs1)c1ccc(N2CCOCC2)c([N+](=O)[O-])c1 | -2 | · | 45 | i | -22 | -3 | -15 | -31
O=C(O)c1ccc(/C=N/O)cc1 | 10 | 0 | 4 | i | -11 | -6 | -2 | 1
Cc1[nH]c2ccccc2c1C(=O)CSc1nncn1C | -13 | · | -11 | i | -31 | 6 | 1 | 3
COc1ccc(C(=O)CSc2nnc(CNC(=O)c3ccccc3F)n2C)cc1OC | 8 | 7 | -5 | i | -15 | -2 | 1 | 5
Cc1cccc(CN2C(=O)N/C(=C/c3cc(C)n(-c4cc(C)ccn4)c3C)C2=O)c1 | 26 | · | -4 | i | -17 | 23 | -1 | -4

Molecules from the list above that have a tert-butyl group:
SMILES | PABP FP inh | Env fusion inh | CSC inhib | Rce1 inhib | UUG fidelity | eIF4H FP inh | MT1-MMP act inh | MT1-MMP act inh RFP | others
CC(C)(C)n1nnnc1C(c1cccs1)N1CCN(c2ccccc2)CC1 (stereo unspecified) | 8 | -57 | 0 | i | -24 | -2 | 2 | -4
CCOC(=O)C1CCCN(C(=O)c2cc(C(C)(C)C)nn2C)CC1 (stereo unspecified) | · | 13 | · | · | 3 | · | -1 | -1

Rows were taken by chance, and some 2.9% of all compounds hit somewhere here.
